RecA splice inh: inhibitors of M. tuberculosis RecA intein splicing; cell-free RecA intein splicing, fluorescence; inhibition, %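 (about 9 µM by stock and volumes)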; 290,000 compounds, 0.75% hits; P9WHJ3; in the data active = inhibition above about 30%; inconclusive = no clear call, values can overlap the other calls;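 also: 0% = vehicle wells and 100% = reference inhibitor control wells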
Target sequence (P9WHJ3 whole entry, looked up, canonical isoform): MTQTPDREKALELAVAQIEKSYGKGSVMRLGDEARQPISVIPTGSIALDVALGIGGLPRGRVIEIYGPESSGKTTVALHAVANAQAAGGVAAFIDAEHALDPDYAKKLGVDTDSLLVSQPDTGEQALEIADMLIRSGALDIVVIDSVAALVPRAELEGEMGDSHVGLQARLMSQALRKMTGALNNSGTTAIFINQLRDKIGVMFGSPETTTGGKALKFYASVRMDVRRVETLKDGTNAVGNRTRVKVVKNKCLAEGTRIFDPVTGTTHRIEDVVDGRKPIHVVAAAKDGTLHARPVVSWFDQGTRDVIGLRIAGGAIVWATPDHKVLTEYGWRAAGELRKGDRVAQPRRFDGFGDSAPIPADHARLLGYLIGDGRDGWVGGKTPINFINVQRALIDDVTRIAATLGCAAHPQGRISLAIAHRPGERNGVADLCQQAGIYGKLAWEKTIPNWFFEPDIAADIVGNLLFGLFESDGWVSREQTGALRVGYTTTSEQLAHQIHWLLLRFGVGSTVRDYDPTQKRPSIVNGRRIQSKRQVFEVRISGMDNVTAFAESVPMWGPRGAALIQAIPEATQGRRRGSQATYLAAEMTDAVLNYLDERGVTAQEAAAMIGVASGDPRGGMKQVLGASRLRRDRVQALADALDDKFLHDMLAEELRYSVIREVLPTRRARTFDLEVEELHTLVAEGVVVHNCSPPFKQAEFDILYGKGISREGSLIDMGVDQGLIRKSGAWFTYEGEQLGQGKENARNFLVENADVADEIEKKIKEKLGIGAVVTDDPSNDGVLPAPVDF
Mtb growth: M. tuberculosis H37Rv growth inhibitors, H37Rv strain (AID 1626); 220,000 compounds, 0.95% hits; M. tuberculosis H37Rv growth inhibition; higher % means a stronger effect; inhibition, % at 10 µM; hits with a dose series show IC50 in µM;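 active = confirmed in a dose series; inconclusive = inhibition above 80% but not taken into the dose series; inactive = below 80% or under 30% at every dose of the series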;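 also: bacteria incubated seven days before Alamar blue readout; 0% = bacteria only wells and 100% = bacteria with antibiotic wells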
YopH inh: blocks Yersinia enterocolitica YopH tyrosine phosphatase; 140,000 compounds, 0.16% hits; inhibition, %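 (about 10 µM by stock and volumes)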; AID 898; fluorescence Ex485/Em525;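 active = inhibition of 50% or more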;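 also: controls were vehicle for no effect and minimum signal wells for full effect; inactives centre near -20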
Mtb betalactam: beta-lactam sensitization of Mtb H37Rv; inhibition, % at 25 µM; 330,000 compounds, 0.27% hits; AID 434955; M. tuberculosis H37Rv growth with meropenem, percent inhibition; hits of this screen are not shown here;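 active = about 74% or more and at least 40 points above the plate without the antibiotic, then above 30% in a dose series; inconclusive = first-round hits that could not be retested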;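 also: growth measured after seven days incubation then overnight dye step; 0% = bacteria only wells and 100% = bacteria with antibiotic; twin plates without the antibiotic show which effects depend on it; some results filed as inactive read as strong as hits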
Arbovirus inh: arbovirus infection inhibition. arbovirus infection cell-based antiviral screen. inhibition, % at 10 µM. 200,000 compounds, 0.37% hits;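 active = inhibition from about 30%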;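 also: bluetongue infection of BSR cells; cell survival read as ATP light after 72 h; 0% = infected wells without compound and 100% = uninfected wells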
Arbovirus inh repeat: further read-out of Arbovirus inh, marked with its call; inhibition, %; measured here: 10K subset replicate screen; many hits read low in the repeat;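 first of two repeat runs on a subset; 0% = infected and 100% = uninfected wells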
* hit, by the source's call; ? = inconclusive; / = no result given. These rows are one share of the data; the hit share may differ from the screen's.

SMILES	RecA splice inh	Mtb growth	YopH inh	Mtb betalactam	Arbovirus inh	others
CCOc1cc(C(=O)NCCCNC(=O)c2cc(OCC)c(OCC)c(OCC)c2)cc(OCC)c1OCC	-3.5	/	/	0.4	/
Cc1ccc(C(=O)NC(O)C(Cl)(Cl)Cl)cc1 (stereo not drawn)	0.3	-18.4%	-21.8	4.9	-2.4
CCOC(=O)Cc1csc(NC(=O)/C=C/c2ccc(Br)o2)n1	-16.6	13.7%	/	-1.3	/
C=CCN(C(=O)CCC(=O)Nc1cc(C)on1)C(C(=O)NC1CCCC1)c1cccnc1 (stereo not drawn)	/	0.2%	-13.0	-5.0	-1.4
COc1ccc2nc(N3CCCC(C(=O)NCCc4ccc(OC)c(OC)c4)C3)sc2c1 (stereo not drawn)	-0.8	/	/	7.1	/
COc1c(Br)cc(Br)cc1/C=N/n1c(C)nnc1C	-6.4	-8.3%	-2.2	2.7	2.3
O=C(Nc1cccc2cccnc12)c1cccc(Cl)c1	7.0	/	/	59.9	/
CCN(CC(=O)Nc1ccccc1C(F)(F)F)C(=O)CCS(=O)(=O)c1ccc(Cl)cc1	1.3	/	/	-11.7	/
COc1ccc(S(=O)(=O)N(CC(=O)NCC2CCCO2)c2ccc(F)cc2)cc1OC (stereo not drawn)	2.0	-2.0%	5.4	6.8	7.2
CCOc1ccccc1NC(=O)NCCc1c[nH]c2ccccc12	5.1	/	/	1.4	/
CCN1CCN(c2nc3ccccc3nc2C(C#N)C(=O)OCc2ccccc2)CC1 (stereo not drawn)	-18.5	0.7%	-23.5	4.7	-10.9
CC1CCCCN1S(=O)(=O)c1ccc(C(=O)Nc2sccc2C(N)=O)cc1 (stereo not drawn)	-4.8	4.0%	-43.8	-4.3	-34.7
Cc1nc2cc(F)ccc2n1C1CCN(C(=O)c2ccc(F)cc2F)CC1	0.9	-4.0%	/	8.4	6.1
O=C(NC1CCSC1=O)c1ccc(Oc2cccc(C(F)(F)F)c2)nc1 (stereo not drawn)	/	-6.9%	-30.0	3.6	0.4
O=C(CCN1c2ccccc2Sc2ccccc21)Nc1ccccc1	14.6	-2.6%	-14.4	-0.8	-1.6
O=C(NNS(=O)(=O)c1ccc(F)cc1)c1ccc2c(c1)OCO2	0.6	/	/	8.6	/
O=C(CCCC1=NS(=O)(=O)c2ccccc2N1)N1CCC2(CC1)OCCO2	-0.8	0.8%	-48.7	-0.2	4.7
NC(=O)CC(NC(=O)c1ccccc1)c1ccc(NCCN2CCCCC2)c([N+](=O)[O-])c1 (stereo not drawn)	1.5	/	/	-3.0	/
O=C(N/N=C/c1ccco1)c1cccc([N+](=O)[O-])c1	-0.9	0.4%	-20.8	?	-2.8
C=CCSc1nnc(-c2nnc(SCC=C)n2CC)n1CC	-0.5	-12.0%	-16.2	-5.0	-0.1
Cc1cccc(-c2noc(CCCC(=O)NCC3CCCO3)n2)c1 (stereo not drawn)	-1.0	/	/	-5.4	/
COC(=O)C1CCN(C(=O)c2ccc(NC(C)=O)cc2)CC1	-1.3	1.5%	-27.2	1.4	0.4
CC(=O)c1ccc(NC(=O)CSCCO)cc1	0.5	-4.5%	-17.7	-1.4	1.5
CC(C)n1c(SCC(=O)Nc2nc3ccccc3s2)nc2c1c(=O)n(C)c(=O)n2C	/	0.9%	-0.5	7.8	-2.1
CCCn1c(NCc2ccc3c(c2)OCO3)nc2ccccc21	2.1	1.6%	-40.0	5.7	11.8
Cc1cc(=O)n(C)c(=O)n1CCCCCCOc1ccc([N+](=O)[O-])cc1	-0.9	0.9%	-5.1	3.7	-4.5
COc1cc2c(c(OC)c1OC)-c1c(cc3c(c1OC)OCO3)C[C@H](C)[C@@](C)(O)C2	0.3	-4.5%	/	-3.2	/
CC(=O)Nc1ccc(S(=O)(=O)NCc2ccc3c(c2)cc(C)n3C)cc1	2.6	14.1%	/	-8.1	-4.5	Arbovirus inh repeat=3.1
COc1ccc(C2C(=O)N(C3CCCCCC3)CC(=O)N2Cc2ccccc2)cc1OC (stereo not drawn)	1.4	6.1%	-21.3	-0.7	-2.8
O=P(OC1CCCCC1)(OC1CCCCC1)C(O)c1c(Cl)cccc1Cl (stereo not drawn)	0.1	-1.5%	-20.0	2.5	1.3
ON=C1CCN(c2ncc(C(F)(F)F)cc2Cl)CC1	-3.3	-7.9%	-22.6	-3.1	7.4
COc1ccc2ccccc2c1C1CC(=O)N2CN(Cc3ccco3)CSC2=C1C#N (stereo not drawn)	4.0	57.5%	-35.7	-3.6	-1.2	Arbovirus inh repeat=-1.1
COC(=O)c1ccc(S(=O)(=O)N2CCCN(Cc3ccc(F)cc3)CC2)n1C	2.4	0.5%	/	4.3	/
O=C(NNC(=O)c1ccc(-c2ccccc2)cc1)Nc1ccc(F)cc1F	-2.2	/	/	-2.9	/
Cc1ccc(-n2ncc(Br)c(Br)c2=O)cc1	66.7*	?	/	/	-22.5
Cn1cc(CNC(=O)C23CC4CC(CC(C4)C2)C3)cn1	2.1	-5.2%	-1.3	-3.8	5.6

Structures from the list above containing four or more nitrogen atoms:
SMILES	RecA splice inh	Mtb growth	YopH inh	Mtb betalactam	Arbovirus inh	others
C=CCN(C(=O)CCC(=O)Nc1cc(C)on1)C(C(=O)NC1CCCC1)c1cccnc1 (stereo not drawn)	/	0.2%	-13.0	-5.0	-1.4
COc1c(Br)cc(Br)cc1/C=N/n1c(C)nnc1C	-6.4	-8.3%	-2.2	2.7	2.3
CCN1CCN(c2nc3ccccc3nc2C(C#N)C(=O)OCc2ccccc2)CC1 (stereo not drawn)	-18.5	0.7%	-23.5	4.7	-10.9
NC(=O)CC(NC(=O)c1ccccc1)c1ccc(NCCN2CCCCC2)c([N+](=O)[O-])c1 (stereo not drawn)	1.5	/	/	-3.0	/
C=CCSc1nnc(-c2nnc(SCC=C)n2CC)n1CC	-0.5	-12.0%	-16.2	-5.0	-0.1
CC(C)n1c(SCC(=O)Nc2nc3ccccc3s2)nc2c1c(=O)n(C)c(=O)n2C	/	0.9%	-0.5	7.8	-2.1

Other results
SMILES	RecA splice inh	Mtb growth	YopH inh	Mtb betalactam	Arbovirus inh	others
O=C(CC1C(=O)NCCN1C(=O)Nc1ccccc1)Nc1ccc(F)cc1 (stereo not drawn)	/	-3.0%	/	-2.8	/
CSc1ncc(/C=C2/C(=O)NC(=O)N(c3ccc(Cl)cc3)C2=O)cn1	/	-6.4%	/	/	-3.7
CC(=O)NC(CC(=O)NNC(=O)c1cccs1)c1ccccc1 (stereo not drawn)	-0.1	/	/	-3.9	/
OC(CNCCc1c[nH]c2ccccc12)C(F)(F)F (stereo not drawn)	0.4	-3.7%	/	-2.6	5.8
CSc1nnc(C)c(=O)n1COC(=O)c1ccccc1	-0.8	-1.0%	/	-1.5	21.3
C=CCn1c(=O)c2c(nc3n2CCS3)n(C)c1=O	-2.8	4.7%	-13.2	-2.4	-0.2
CC1CN(c2ccc([N+](=O)[O-])cc2Cl)CCN1S(C)(=O)=O (stereo not drawn)	0.7	12.3%	/	-1.1	/
CC1=Nn2c(nnc2-c2ccccn2)SC1	2.9	-2.5%	-190.2	0.1	-1.9
Cc1ccc(OCCNC(=O)Cc2ccc(F)cc2)cc1	-1.5	-10.7%	/	-1.2	-3.0
CC(=O)N1c2ccc(S(=O)(=O)N3CCCC(C(=O)NCc4ccc(Cl)cc4)C3)cc2CC1C (stereo not drawn)	1.8	/	/	-10.2	/
CCOc1ccccc1-c1nc(CN2CCCC2c2nccs2)c(C)o1 (stereo not drawn)	1.8	-0.6%	/	1.3	4.3
COc1ccc2c(c1)c1nc3n(c(=O)c1n2CC(=O)Nc1cc(C)[nH]n1)CCS3	3.6	2.9%	/	2.9	3.0
Cc1ccc(N(Cc2ccccc2)C(=O)c2cc(S(=O)(=O)N3CCOCC3)ccc2Cl)cc1	11.7	/	/	-18.6	/
CCOC(=O)c1[nH]c(C)c(/C(O)=C2\C(=O)C(=O)N(CCCN3CCOCC3)C2c2cccs2)c1C (stereo not drawn)	-0.7	-0.5%	/	-9.2	/
COC(=O)C1CSC2c3ccccc3C(=O)N12 (stereo not drawn)	2.8	/	/	19.0	/
Cc1ccc(NC(=O)Cn2nnc(-c3ccccc3-n3cnnn3)n2)c(C)c1	-0.6	2.5%	/	-5.8	17.2
CC1CCN(C(=O)Cn2c3ccccc3c3nc4n(c(=O)c32)CCS4)CC1	-1.8	/	/	2.6	/
COC(=O)NC(=C(Cl)Cl)S(=O)(=O)c1ccccc1	/	0.1%	-3.1	12.0	-4.3
Cn1c(=O)[nH]c(=O)c2c1nc(SCCO)n2CCCc1ccccc1	0.8	/	/	1.1	/
c1ccc(COc2ccc(OCCCCN3CCCCC3)cc2)cc1	-0.5	-3.1%	-18.5	-3.5	-19.8
CCNC(=S)Nc1ccc(N(c2ccccc2)C(C)C)cc1	-2.1	-2.5%	-13.1	-16.1	-12.3
CCCc1cc(C(=O)Nc2cc(C)on2)no1	-5.2	72.2%	-34.1	7.1	-0.7
C=CCn1c(SCc2ccc(C#N)cc2)nnc1-c1cccc(Cl)c1	6.8	0.4%	19.0	-6.6	2.4
COC(=O)CNC(=O)c1ccc(F)cc1	3.1	-0.3%	/	-5.9	/
CCCC(=O)Nc1cc(-c2nnc(OC)c3ccccc23)ccc1N1CCCCC1	3.7	/	-22.3	8.2	9.7
CS(=O)(=O)N(CC(=O)NC1CCCC1)c1ccc2c(c1)OCCO2	-4.5	-0.6%	-11.4	-2.4	8.2
Cc1cccc(Nc2nc(N)c([N+](=O)[O-])c(NCc3ccccc3)n2)c1	18.0	16.8%	/	23.4	/
O=C(NNC(=O)c1ccccc1Br)c1ccc2nc[nH]c2c1	2.7	/	/	-11.9	/
CCOC(=O)N1CCC(NS(=O)(=O)c2cc(Br)cc3c2N(C(=O)CC)CC3)CC1	1.5	/	15.0	-0.9	0.4
Cc1cc(=O)[nH]c(N/N=C/c2ccc(Cl)cc2Cl)n1	-3.2	/	/	-0.3	/
CC1CCCN(Cc2nc3c(c(=O)n(C)c(=O)n3C)n2CC(=O)c2ccccc2)C1 (stereo not drawn)	0.9	0.2%	-35.7	-7.6	1.2	Arbovirus inh repeat=-6.0
Cc1ccc(OCC(=O)N/N=C\c2ccc(-c3cccc(C(=O)O)c3)o2)c(C)c1	-2.3	0.1%	5.5	7.5	14.9
Cc1ccc(-n2c(SCC(=O)NCCN3C(=O)CSC3=O)nnc2-c2ccccc2)cc1	-1.6	-2.6%	-16.1	-2.3	-5.8
O=C(NCc1cccnc1)c1ccc(S(=O)(=O)Nc2ccccc2)cc1	0.0	/	/	-8.9	/
COc1ccccc1C1CN(c2ccc(F)cc2F)N=C1c1cccs1 (stereo not drawn)	-12.9	-7.4%	-4.6	-0.4	-9.2
CCC(C)c1ccc(OCC(=O)O)cc1 (stereo not drawn)	1.2	-2.9%	37.5	0.5	2.5
NC(=O)CC(NC(=O)Cc1ccc(Br)cc1)c1ccc(N2CCC(N3CCCCC3)CC2)c([N+](=O)[O-])c1 (stereo not drawn)	0.4	/	/	-8.1	/
CCOc1cc(C2C(C(=O)OC(C)C)=C(C)N=C3SCCC(=O)N32)ccc1OC(C)=O (stereo not drawn)	-4.1	-4.4%	27.8	-6.6	13.7
CC1(C)CC(=O)CC2(C1)NCC(c1ccccc1)c1c2[nH]c2ccccc12 (stereo not drawn)	7.5	10.8%	/	5.6	10.4
O=C(CSc1nncs1)Nc1ccc(Cl)cn1	-3.6	0.0%	-26.2	1.1	2.5
CSC(=NCc1ccc(F)cc1)NS(=O)(=O)c1cccs1	-2.9	-4.9%	-28.6	7.1	-20.3
COc1cc(/C=C2/C(=N)N3N=C(C)SC3=NC2=O)ccc1OS(=O)(=O)c1ccc(C)cc1	-2.6	/	/	2.5	/
CCCC(=O)Nc1cccc(NC(=O)c2ccc3c(c2)OCCO3)c1	-1.1	-3.4%	-48.5	5.5	0.0
CCOC(=O)c1sc2ccccc2c1OC(=O)c1ccccc1	4.1	12.8%	-14.7	90.7	6.5
CCC(=O)Nc1cccc(NC(=S)NC(=O)c2cccs2)c1	-4.9	7.7%	-18.8	0.7	-5.2
CCC(C)[C@H](NC(=O)NCCCN1CCOCC1)C(=O)OC (stereo partly drawn)	0.2	-3.8%	3.5	?	7.2
CC(=O)Nc1ccc(S(=O)(=O)/N=C2\C(=O)c3ccccc3C([O-])=C2n2cc[n+](-c3ccccn3)c2)cc1	85.3*	-8.2%	/	2.0	/
Cc1cc(C(=O)CN2C(=O)c3ccccc3S2(=O)=O)c(C)n1CC1CCCO1 (stereo not drawn)	0.3	-16.6%	-21.6	-3.4	0.4
COc1cc2c(cc1OC)CN(C(=O)c1sc(-c3cnccn3)nc1C)CC2	2.0	-10.6%	/	0.1	/

2 compounds drawn at random from the list so far, as already listed:
SMILES	RecA splice inh	Mtb growth	YopH inh	Mtb betalactam	Arbovirus inh	others
O=C(CCN1c2ccccc2Sc2ccccc21)Nc1ccccc1	14.6	-2.6%	-14.4	-0.8	-1.6
Cc1ccc(-n2c(SCC(=O)NCCN3C(=O)CSC3=O)nnc2-c2ccccc2)cc1	-1.6	-2.6%	-16.1	-2.3	-5.8
